Source: PubChem (National Center for Advancing Translational Sciences (NCATS))
ClpP mod = qHTS Assay for Activators of ClpP; 1.9% of 340,000 active; Potency, µM (highest dose often 57.5 µM), for inactives: at the highest dose activity change, negative = active; purified B. subtilis ClpP, FRET peptide cleavage, 20 min; active = well fitted falling curve with a large enough effect; inconclusive = small, poorly fitted or top-dose-only effect; inactive = no such curve, though single readings can be large or run the other way; further: the source files actives as falling curves though it sought activators and does not explain the sign; nearly all actives have a fitted effect of over 65% in size; many hits overshoot -100%
Target sequence (P80244 whole entry, looked up): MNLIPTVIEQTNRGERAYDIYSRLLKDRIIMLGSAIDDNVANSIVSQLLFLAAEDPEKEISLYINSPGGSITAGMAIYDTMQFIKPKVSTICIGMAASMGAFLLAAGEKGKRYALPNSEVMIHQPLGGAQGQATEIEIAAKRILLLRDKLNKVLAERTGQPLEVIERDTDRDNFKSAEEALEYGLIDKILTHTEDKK
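Purified B. subtilis ClpP, 10 microg/mL final in Tris/HCl pH8 with KCl, BSA, glycerol and Tween-20, cleaved an Abz/nitrotyrosine-quenched decapeptide. Fluorescence (ex 320, em 430) was read at 0 and 20 min at room temperature. Delta was normalized to 5.8 microM ADEP and DMSO/no-enzyme controls.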
* marks the source's active call; other numbers are inactive results. Potency means the concentration at half of the fitted maximal effect. An excerpt, so the mix of outcomes need not match the whole.

How did COc1ccc(C)cc1NC(=O)CSc1nc(=O)[nH]c2c1CCCC2 do in these assays?
ClpP mod: 0.2%

Results for CCn1cc(C(=O)NCCc2ccc(Cl)cc2)c(=O)c2cc(S(=O)(=O)N(C)C3CCCCC3)ccc21 ?
ClpP mod: 0.7%

What do the screens show for `Cc1nnc(SCc2nc(-c3ccc(Cl)cc3)no2)n1-c1ccc(F)cc1`?
ClpP mod: -2.8%

Results for CCc1ccc(NC(=O)CCCc2nnc3n(CC(C)C)c(=O)c4sccc4n23)cc1 ?
ClpP mod: -2.5%

Results for COc1ccc(C2CC(=O)N(CC(=O)Nc3ccc(C)c(Cl)c3)c3ccccc3S2)cc1OC (stereo unspecified) ?
ClpP mod: -2.5%

What do the screens show for `COc1ccc(N2CCN(CCCNC(=O)c3sc4ncccc4c3-n3cccc3)CC2)cc1`?
ClpP mod: 0.8%

Results for COC(=O)c1cnn(-c2ccc(C(=O)Nc3cc(OC)c(OC)c(OC)c3)cc2)c1N ?
ClpP mod: -0.2%

How did NCc1nc2cccnc2n1Cc1ccccc1Cl do in these assays?
ClpP mod: -1.2%

Results for CC(C)Oc1ccc(CNC(=O)Cn2nc(N3CCN(c4ccccc4)CC3)ccc2=O)cc1 ?
ClpP mod: 2.0%

What do the screens show for `COc1cc(C2CC(=O)Oc3c2c(=O)[nH]c2ccccc32)cc(OC)c1OC` (stereo unspecified)?
ClpP mod: 6.7%

What do the screens show for `CCN1CCN(C(c2ccccc2Cl)c2sc3nc(-c4ccco4)nn3c2O)CC1` (stereo unspecified)?
ClpP mod: -0.4%

Results for COc1cccc(C(=O)Nc2cccc(OCc3cc(=O)n4cccc(C)c4n3)c2)c1 ?
ClpP mod: -0.1%

Results for CN(C)c1ccc(NC(=O)Cn2c(SCc3ccc(F)cc3)nc3ccncc32)cc1 ?
ClpP mod: -0.2%

Results for O=C(Cn1c(-c2cccs2)cc2cc(F)ccc21)N1CCN(c2ccccc2)CC1 ?
ClpP mod: 15.8µM*

Results for O=S(=O)(NCc1nc2cccnc2n1Cc1ccc(F)cc1)c1ccc(Cl)s1 ?
ClpP mod: -2.4%

What do the screens show for `O=S1(=O)c2ccccc2N(Cc2ccc(Cl)cc2F)c2ccccc21`?
ClpP mod: 1.5%

Results for Cc1ccc(Cl)cc1NC(=O)Cn1c(=O)n(CCC(=O)N2CCc3ccccc3C2)c(=O)c2ccccc21 ?
ClpP mod: 0.8%

How did CC(C)c1nn2c(=O)cc(COC(=O)c3cccs3)nc2s1 do in these assays?
ClpP mod: -1.7%

Results for CCN(Cc1ccccc1)C(=O)Cn1c(=O)n(-c2ccc(Cl)cc2)c(=O)c2c(C)c(C)sc21 ?
ClpP mod: 1.0%

Results for O=C(CC1C(=O)N(c2ccc(F)cc2)C(=O)N1Cc1ccc2c(c1)OCO2)Nc1ccc(Cl)cc1 (stereo unspecified) ?
ClpP mod: 2.7%

What do the screens show for `COc1ccc(C2N3CC4(C)CN2CC(c2ccccc2)(C3)C4=O)cc1OC` (stereo unspecified)?
ClpP mod: 2.3%

How did CCCCCn1c(CCCNC(=O)c2ccccc2)nc2ccccc21 do in these assays?
ClpP mod: -0.2%

What do the screens show for `Cn1c2ccccc2c2c(C(=O)N3CCN(c4ccc(F)cc4)CC3)cn(C3CCCCC3)c(=O)c21`?
ClpP mod: inconclusive

How did CCn1c(=NC(=O)c2ccc3c(c2)OCCO3)sc2c(C)ccc(OC)c21 do in these assays?
ClpP mod: 4.3%

Results for C=C(C)Cn1c(SCC(=O)Nc2ccccc2C)nc2sc3c(c2c1=O)CCCC3 ?
ClpP mod: -2.7%

How did Cc1ccccc1CN1c2ccccc2-c2nc(SCC(=O)c3ccccc3)ncc2S1(=O)=O do in these assays?
ClpP mod: -6.2%

How did CCOC(=O)c1[nH]c(C)c(CCC(=O)N2CCN(c3cccc(OC)c3)CC2)c1C do in these assays?
ClpP mod: -1.2%

How did CCSc1ncc(Cl)c(C(=O)N2CCN(c3ccc(OC)cc3)CC2)n1 do in these assays?
ClpP mod: -0.5%

How did Cc1ccc(C)c(NC(=O)CN2CCCN(Cc3cccc(Cl)c3)S2(=O)=O)c1 do in these assays?
ClpP mod: 0.8%

What do the screens show for `Cc1cc2oc(C(=O)Nc3ccc(S(=O)(=O)N(C)Cc4ccccc4)cc3)cc(=O)c2cc1C`?
ClpP mod: -2.6%

Among those listed so far, 3 have an NH in an aromatic ring:
How did COc1ccc(C)cc1NC(=O)CSc1nc(=O)[nH]c2c1CCCC2 do in these assays?
ClpP mod: 0.2%

What do the screens show for `COc1cc(C2CC(=O)Oc3c2c(=O)[nH]c2ccccc32)cc(OC)c1OC` (stereo unspecified)?
ClpP mod: 6.7%

How did CCOC(=O)c1[nH]c(C)c(CCC(=O)N2CCN(c3cccc(OC)c3)CC2)c1C do in these assays?
ClpP mod: -1.2%

(more compounds)
What do the screens show for `COc1ccc(N2CC(NC(=O)C(c3ccccc3)c3ccccc3)CC2=O)cc1` (stereo unspecified)?
ClpP mod: 2.1%

What do the screens show for `CCN(c1cc(C)cc(C)c1)S(=O)(=O)c1nnc(NC(=O)c2cccs2)s1`?
ClpP mod: -1.2%

How did Cc1noc2ncnc(NCc3cccc(Cl)c3)c12 do in these assays?
ClpP mod: -3.1%

How did O=C(COc1ccccc1)Nc1c(C(=O)N2CCN(c3ccc(F)cc3)CC2)oc2ccccc12 do in these assays?
ClpP mod: 0.6%

How did Cc1ccc(C)c(N2CCN(C(=O)Cn3cnc4nc5c(cc4c3=O)CCCC5)CC2)c1 do in these assays?
ClpP mod: -4.8%

How did CC(=O)c1ccc(S(=O)(=O)Nc2ccc(-c3ccc(N4CCCCC4)nn3)cc2)cc1 do in these assays?
ClpP mod: -1.3%

Results for CNC(=O)C1CCN(Cc2cc3ccccc3n2Cc2cccc(C)c2)CC1 ?
ClpP mod: -3.5%

Results for Cc1ccc(C(=O)Nc2ccc(C(=O)OCc3cc(=O)n4nc(C5CC5)sc4n3)cc2)cc1 ?
ClpP mod: inconclusive

How did O=C(NCCCN1CCN(c2ccccc2F)CC1)c1cc2c(Cl)nc3ccccc3c2s1 do in these assays?
ClpP mod: 0.6%

What do the screens show for `CC(C)CC(=O)Nc1nc2nc(-c3ccccc3)cc(=O)n2[nH]1`?
ClpP mod: -5.2%

What do the screens show for `Cc1ccc(Cl)cc1N1CCN(C(=O)c2cnc3c(-c4ccc(F)cc4)c(C)nn3c2C)CC1`?
ClpP mod: 0.6%

Results for Cc1ccc(S(=O)(=O)c2nnn(CC(=O)Nc3ccccc3C)c2N)cc1 ?
ClpP mod: -8.3%

Results for CC(=O)Nc1ccc(S(=O)(=O)Nc2cc(-c3cn4ccccc4n3)ccc2C)cc1 ?
ClpP mod: 4.2%

How did CCOc1ccccc1NC(=O)N1CCc2cc(S(=O)(=O)N3CCC(C)CC3)ccc21 do in these assays?
ClpP mod: -0.9%

Results for CN(CC(=O)Nc1ccc(OC(F)(F)F)cc1)S(=O)(=O)c1ccc2c(c1)CCC(=O)N2 ?
ClpP mod: -0.9%

What do the screens show for `Cc1ccccc1CNC(=O)C1CCCN(S(=O)(=O)N(C)c2ccc(F)cc2)C1` (stereo unspecified)?
ClpP mod: -2.3%

Results for COc1ccc(OCc2ccc(-c3nc(C#N)c(N4CCC(C(N)=O)CC4)o3)o2)cc1 ?
ClpP mod: 35.5µM*

What do the screens show for `CCc1nc2sc3c(N4CCCCC4)ncnc3c2c2c1CCCC2`?
ClpP mod: -19.4%

Results for CC(C)c1ccc(CNCCSc2nnnn2C)cc1 ?
ClpP mod: 2.6%

How did Nc1ncc(S(=O)(=O)NCc2ccc(F)cc2)cn1 do in these assays?
ClpP mod: -3.5%

How did CCCn1c2ccccc2c2cnn(CC(=O)N(CC)c3cc(C)ccc3C)c(=O)c21 do in these assays?
ClpP mod: 2.8%

Results for COc1cc(OC)cc(C(=O)Nc2cccc(-c3cn4cccnc4n3)c2)c1 ?
ClpP mod: 3.9%

What do the screens show for `Cc1ccc(NC(=O)c2cc(S(=O)(=O)NC3CCCCC3)ccc2F)cc1Cl`?
ClpP mod: -1.2%

What do the screens show for `COc1ccc(NC(=O)CSc2nc3ccccc3n2CC(=O)N2CCCCC2C)cc1` (stereo unspecified)?
ClpP mod: -5.4%

What do the screens show for `Cc1ccc(NC(=O)CSc2nc3c(c(=O)[nH]2)CN(Cc2ccccc2)CC3)cc1Cl`?
ClpP mod: -0.9%

Results for COc1ccc(OC)c(C2N=C(N)Nc3nc4ccccc4n32)c1 (stereo unspecified) ?
ClpP mod: -1.9%

Results for COc1ccc(-c2cn3c(n2)sc2cc(C(=O)NCc4ccccc4)ccc23)cc1 ?
ClpP mod: inconclusive

Results for CCC(=O)Nc1ccccc1-c1nc2ccccc2n(Cc2cccc(Br)c2)c1=O ?
ClpP mod: -0.7%

How did CCOc1ccc(CCNC(=O)Cn2nc(C)n3c(cc4occc43)c2=O)cc1OCC do in these assays?
ClpP mod: -1.5%

How did CCC(C)NC(=O)c1cc2c(Cl)nc3ccc(C)cc3c2s1 (stereo unspecified) do in these assays?
ClpP mod: -5.9%

Sorted by length of the SMILES (smallest number first): part of the list above.
How did CCC(C)NC(=O)c1cc2c(Cl)nc3ccc(C)cc3c2s1 (stereo unspecified) do in these assays?
ClpP mod: -5.9%

How did CCOc1ccc(CCNC(=O)Cn2nc(C)n3c(cc4occc43)c2=O)cc1OCC do in these assays?
ClpP mod: -1.5%

What do the screens show for `Cc1ccc(NC(=O)CSc2nc3c(c(=O)[nH]2)CN(Cc2ccccc2)CC3)cc1Cl`?
ClpP mod: -0.9%

The listing picks up, starting 3 compounds before the break.
Results for CCC(=O)Nc1ccccc1-c1nc2ccccc2n(Cc2cccc(Br)c2)c1=O ?
ClpP mod: -0.7%

How did CCOc1ccc(CCNC(=O)Cn2nc(C)n3c(cc4occc43)c2=O)cc1OCC do in these assays?
ClpP mod: -1.5%

How did CCC(C)NC(=O)c1cc2c(Cl)nc3ccc(C)cc3c2s1 (stereo unspecified) do in these assays?
ClpP mod: -5.9%

How did COc1ccc(CCCc2nnc(SCC(=O)Nc3ccccc3F)o2)cc1C do in these assays?
ClpP mod: 3.9%

Results for Cc1sc2c(c1C)c(=O)n(CCc1ccccc1)c(=O)n2Cc1ccccc1Cl ?
ClpP mod: 0.7%

Results for Cc1cc(C)cc(N2CCn3c2nc2c3c(=O)n(Cc3c(F)cccc3Cl)c(=O)n2C)c1 ?
ClpP mod: -6.4%

What do the screens show for `Cc1c(Cl)cccc1NC(=O)CCn1cnnn1`?
ClpP mod: 1.2%

What do the screens show for `CCOc1ccccc1NC(=O)c1cc2c(=O)n(Cc3cccnc3)ccc2nc1C`?
ClpP mod: -28.1%

Results for CCCCCn1c(C(C)NC(=O)c2ccccc2)nc2ccccc21 (stereo unspecified) ?
ClpP mod: -1.1%

How did COc1ccc(NC(=O)c2cc3c(C)nn(-c4ccccc4)c3s2)c(OC)c1 do in these assays?
ClpP mod: 1.0%

Results for O=C(Nc1cccc(-c2cn3cccnc3n2)c1)c1cc(Br)ccc1Cl ?
ClpP mod: 3.6%

How did CC1CCCCN1C(=O)CN1CCSc2ccccc21 (stereo unspecified) do in these assays?
ClpP mod: 0.3%

What do the screens show for `O=C(c1ccco1)n1nc(-c2ccc(Cl)cc2)nc1NCc1ccccc1`?
ClpP mod: -19.1%

Results for CC(Oc1ccccc1)C(=O)N[C@@H]1C(=O)N2C(C(=O)OCC3CCCCC3)C(C)(C)S[C@H]12 (stereo partly specified) ?
ClpP mod: -1.5%

Results for Cc1cccc(NC(=O)C(=O)NCCc2sc(-c3ccccc3)nc2C)c1C ?
ClpP mod: -9.7%

What do the screens show for `Cc1ccc(NC(=O)CCCn2c(=O)c3cccn3c3ccccc32)cc1C`?
ClpP mod: -8.3%

Results for COc1ccc(NC(=O)c2c(NC(=O)COc3ccccc3)sc3c2CCC(C)C3)cc1 (stereo unspecified) ?
ClpP mod: -4.0%

What do the screens show for `COc1cc(C(=O)Nc2ccc3[nH]c(=O)sc3c2)cc(OC)c1OC`?
ClpP mod: 1.0%

How did Cc1cccc(N2CCN(C(=O)c3cc4c(=O)n(C)c5ccccc5c4s3)CC2)c1C do in these assays?
ClpP mod: -1.5%

What do the screens show for `Cc1ccc(NC(=O)N2CC3CCCN3c3ccccc32)cc1Cl` (stereo unspecified)?
ClpP mod: -7.3%

How did COc1cc(NC(=O)Cn2c(=O)n(CC(=O)NCCc3ccc(OC)c(OC)c3)c(=O)c3sccc32)cc(OC)c1 do in these assays?
ClpP mod: 2.4%

What do the screens show for `COc1ccc2c(c1)c(=O)c(S(=O)(=O)c1ccccc1)cn2CC(=O)Nc1ccc(C)c(Cl)c1`?
ClpP mod: inconclusive

Results for CN(C(=O)CSc1nnc(-c2ccccc2F)o1)C1CCCCC1 ?
ClpP mod: -2.3%

What do the screens show for `CC(C)c1ccc(NC(=O)CCS(=O)(=O)c2ccc(Br)s2)cc1`?
ClpP mod: -1.8%

Results for Cc1cc(SCC(=O)Nc2nsc(-c3ccc(C(C)(C)C)cc3)n2)nc2ccccc12 ?
ClpP mod: -23.4%

How did Cc1ccc2nc(-c3ccc(N4CCOCC4)cc3)c(Nc3ccccc3C)n2c1 do in these assays?
ClpP mod: 3.7%

What do the screens show for `CCOC(=O)c1c(-c2ccc(C)cc2)csc1NC(=O)c1cc(=O)c2ccc(C)cc2o1`?
ClpP mod: -1.0%

Results for Cc1cc(C)c2sc(N3CCN(C(=O)C4CC4)CC3)nc2c1 ?
ClpP mod: 1.8%

Results for CCOC(=O)c1scc(-c2ccccc2)c1S(=O)(=O)Nc1cc(OC)cc(OC)c1 ?
ClpP mod: -0.4%

How did Cc1nn(C)c2c1c(-c1ccccc1)cc(=O)n2Cc1ccccc1F do in these assays?
ClpP mod: 28.2µM*

How did O=S(=O)(Nc1ccc(-c2ccc(N3CCCC3)nn2)cc1)c1ccc(OC(F)(F)F)cc1 do in these assays?
ClpP mod: -9.7%
